BasE inh – BasE siderophore enzyme inhibitors, primary screen, biochemical, Acinetobacter baumannii ATCC 17978, fluorescence polarization; purified BasE, fluorescence polarization binding displacement; inhibition, % (test concentration not listed); hit rate 0.1% among 84,000; AID 485350, 2010;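 active = both replicates above 25% with normal brightness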;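 also: 0% = negative plate control signal and 100% = positive plate control signal; stock transfer was 100 nL into about 30 µL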
LANA-nucl inh – inhibitors of KSHV LANA-nucleosome binding, primary screen, biochemical, fluorescence polarization, FITC-LANA1-23, chicken nucleosomes | FITC-LANA1-23 / chicken nucleosome fluorescence polarization; hits give low values | z-score (no concentration beside the values) | hit rate 0.3% among 51,000 | AID 720717, 2013;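 active = both repeat wells score below -2 in polarization z-score versus plate sample wells, excluding overly bright wells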;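 also: 100 nL library stock added to about 30 µL; numbers are from one replicate; some results filed as inactive read as strong as hits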
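Assay system: FITC-LANA peptide and chicken nucleosomes; input: 240 nM purified chicken nucleosomes (480 nM peptide binding sites), final; also added: 50 nM FITC-LANA1-23 probe; medium: TEN-BT buffer, pH 7.5; doses: pin-transferred compound, 100 nL; times: 10–45 min, room temperature; technique: fluorescence polarization; replication: duplicates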
* hit, by the source's call; nt = no result given; & = joins results of further samples. An excerpt. The share of hits here may be higher or lower than overall.

SMILES	BasE inh	LANA-nucl inh
CN(C)S(=O)(=O)c1cc(S(=O)(=O)c2ccc(Cl)c(S(=O)(=O)N(C)C)c2)ccc1Cl	1.1	nt
COc1ccc(N2C(=O)c3ccc(Oc4ccccc4)cc3C2=O)cc1	-0.4	nt
COc1ccc(C[C@H](N)C(=O)N[C@H]2[C@@H](O)[C@H](n3cnc4c(N(C)C)ncnc43)O[C@@H]2CO)cc1	nt	-0.58
CNC(=O)c1cc(S(=O)(=O)N2CCCC2)ccc1Cl	3.0	0.58
Cc1ccc2nc(Cn3cnc4ccccc43)cc(=O)n2c1	7.6	nt
CCCN(CCC)C(=O)Cn1c(SCc2cccc(C)c2)nc2ccncc21	0.2	-1.3
CCc1ccc2nc3n[nH]c(N)c3cc2c1	6.8	-0.62
Cc1ccc(OCC(O)Cn2cnc3ccccc32)cc1 (configuration not stated)	-0.8	1.4
C=CCN1C/C(=c2\sc3nc(-c4ccccc4OC(C)=O)nn3c2=O)c2ccccc21	1.4	nt
CC(=O)N[C@@H](CSC/C=C(\C)CC/C=C(\C)CCC=C(C)C)C(=O)O	-1.5&-0.4	-0.035&0.52
CCn1c(=O)c2cc(S(N)(=O)=O)ccc2n(CC)c1=O	-2.4	0.25
CC(C)(C)NS(=O)(=O)c1cc(C(=O)Nc2nccs2)ccc1Cl	1.5	nt
CC(=O)Nc1ccc(NC(=O)c2ccc(NC(C)=O)cc2)cc1	0.0	nt
COC(=O)CNS(=O)(=O)c1ccsc1C(=O)OC	3.0	nt
COc1cccc(N2C(=O)CC(n3nc(Nc4cccc(C)c4)sc3=S)C2=O)c1 (configuration not stated)	-5.7	nt
Cc1cc(=O)c2ccccc2n1CC(N)=O	-1.6	0.15
Cc1ccc(NC(=O)C23CC4CC(CC(C4)C2)C3)cc1	2.1	nt
Cc1csc(=O)n1CCC(=O)OCc1cc2ccccc2nc1Cl	-0.4	nt
CC(C)NCC(O)c1ccc(O)c(O)c1 (configuration not stated)	-3.2&0.3&1.9	1.2&0.34&-0.57&-0.22&0.17
Cc1ccccc1-n1c(C)nnc1SCC(=O)N(Cc1ccccc1)C(C)C	-0.1	nt
Oc1c(I)cc2oc3c(c2c1C=NCc1ccncc1)CCCC3	8.5	nt
CSc1sc(=O)sc1SC	0.3	nt
CC1CN(C)C(C)C/C1=N/O (configuration not stated)	-1.9	1.6
c1csc(-c2nc(-c3c[nH]c4ccccc34)cs2)c1	1.1	nt
O=C1CC(c2ccccc2)CC(=O)C1CS(=O)(=O)c1ccccc1 (configuration not stated)	nt	-0.53
COc1ccc(CCN(C)C(=O)CSc2nncs2)cc1OC	2.5	nt
Nc1ccc2c(C(F)(F)F)cc(C(F)(F)F)nc2n1	-2.6	2.4
CCOc1ccc(Br)cc1C(=O)N/N=C/c1ccco1	1.7	-0.07
COc1ccc(C2=NN(C(=O)CSc3ccccc3)C(c3ccco3)C2)cc1 (configuration not stated)	0.2	nt
O=S(=O)(c1ccc(-c2ccccn2)s1)N1CCC2(CC1)OCCO2	-0.8	nt

2 entries from above, comma-delimited:
mol,BasE inh,LANA-nucl inh
COc1ccc(N2C(=O)c3ccc(Oc4ccccc4)cc3C2=O)cc1,-0.4,nt
COc1ccc(C[C@H](N)C(=O)N[C@H]2[C@@H](O)[C@H](n3cnc4c(N(C)C)ncnc43)O[C@@H]2CO)cc1,nt,-0.58

Compound profiles, as listed above.
Entry for c1csc(-c2nc(-c3c[nH]c4ccccc34)cs2)c1 → BasE inh: 1.1; LANA-nucl inh: nt
Entry for Oc1c(I)cc2oc3c(c2c1C=NCc1ccncc1)CCCC3 → BasE inh: 8.5; LANA-nucl inh: nt
Entry for COc1ccc(CCN(C)C(=O)CSc2nncs2)cc1OC → BasE inh: 2.5; LANA-nucl inh: nt

(listing goes on)
SMILES	BasE inh	LANA-nucl inh
Cc1ccc2oc(=O)c3cc(C(=O)NCCCN4CCN(C)CC4)sc3c2c1	-3.8	1
Cc1ccc(-c2c3c(=O)n(C)c(=O)n(C)c3cn2C)cc1	0.6	nt
COc1ccc(NC(=O)c2cc(-c3ccc(C)o3)nc3ccccc23)cc1OC	5.4	-0.64
CN(C)S(=O)(=O)c1cccc(C(=O)NCC(=O)NC2CCN(Cc3ccccc3)CC2)c1	-1.8	nt
CCS(=O)(=O)N1CCN(S(=O)(=O)c2ccc(Cl)cc2)CC1	-1.1	-0.72
CCOc1ccc(CN(C)C(C)C(=O)NCc2ccccc2)cc1 (configuration not stated)	0.4	nt
Cc1n[nH]c(C)c1Cc1ccc(C(=O)O)o1	-1.4	0.9
CN(Cc1ccccc1)C(=O)COc1cc(=O)n(C)c2ccccc12	0.4	0.2
CC(C)c1ccc(NCC(O)COc2ccc(Cl)c(Cl)c2)cc1 (configuration not stated)	1.1	nt
Cc1ccc(C(CNS(=O)(=O)c2ccc(F)cc2C)N2CCN(C)CC2)cc1 (configuration not stated)	-13	-0.1
CC(C)c1nc(C#N)c(NCc2cccnc2)o1	1.0	nt
CSc1ccccc1NC(=O)C1Cc2ccccc2O1 (configuration not stated)	-1.8	nt
O=C1OC(CN2CCOCC2)CN1N=Cc1ccc([N+](=O)[O-])o1 (configuration not stated)	-1.1	-0.72
CCCn1c(=O)n(C)c(=O)c2c(SCC(=O)Nc3cccc(OC)c3)nc(C(C)C)nc21	-1.8	nt
CCOC(=O)c1c(C)oc2c1c(CN1CCN(c3ccccc3F)CC1)c(O)c1ccccc12	1.2	nt
CN(C)C(=O)CCc1cc(C(C)(C)C)c(O)c(C(C)(C)C)c1	0.9	-0.33
CC(NC(=O)Nc1ccc(Cl)cc1)c1nc(-c2cccnc2)n[nH]1 (configuration not stated)	-4.1	1.4
C=CCOC(=O)COc1ccc2c(CC)cc(=O)oc2c1	-1.1	0.77
O=c1oc2ccccc2c(O)c1C=Nc1ccccc1	3.7	-0.48
CC(=O)NC1C(Sc2ccccc2)OC(CO)C(O)C1O (configuration not stated)	2.8	-0.18
COc1ccccc1-c1noc(CCC(=O)Nc2cc(C(F)(F)F)ccc2Cl)n1	-2.3	-0.14
Cn1cc(C(=O)O)c(=O)c2ccccc21	-2.1	0.77
CCOC(=O)c1c(NC(=S)N2CCOCC2)sc(C)c1C	2.4	nt
O=C(NCC1COc2ccccc2O1)C1CCCN(C(=O)c2ccc(Cl)cc2)C1 (configuration not stated)	-0.4	nt
CCCCN=Cc1c(O)n(Cc2ccccc2)c(=O)[nH]c1=O	1.5	0.21
CCOc1ncnc2c1sc1nc3c(cc12)COC(C)(C)C3	-1.2	nt
CCN(C(=O)c1cccc(Cl)c1)C1CCCCC1	-0.1	0.75
CC(C)c1ccc(C(N)CC(=O)O)cc1 (configuration not stated)	nt	-1.1
O=C(CSc1cn(Cc2ccccc2)c2ccccc12)NCc1ccco1	2.1	-0.046
Cn1c(C(=O)NCCN2CCOCC2)cc2c(=O)n(C)c3ccccc3c21	-2.5	1.1
CN(C(=O)C1CC1)c1nnc(-c2ccc(F)cc2)s1	-0.3	0.14
COc1cc(C(=O)Oc2cccc(C)c2C)cc(OC)c1OC	-2.0	-0.55
Cc1occc1C(=O)Oc1ccc(C(=O)c2ccccc2)cc1	1.1	nt
NC(CCc1nc2ccccc2[nH]1)C(=O)O (configuration not stated)	0.7	0.54
C1=CCC(CNCc2ccc3c(c2)OCO3)CC1 (configuration not stated)	-5.7	0.8
COC(=O)c1ccc(NCC(=O)c2ccccc2)cc1	0.5	0.19
O=C(Cc1ccc(Cl)cc1)Nc1cccc(-c2ccc(N3CCOCC3)nn2)c1	1.7	-0.28
Cc1ccc(Cl)cc1N1CCN(C(=O)C2(c3ccccc3)CC2)CC1	8.1	nt
Cn1cnc(S(=O)(=O)NCC2CCN(C(=O)OC(C)(C)C)CC2)c1	1.1	nt
CCOC(=O)n1c(CC#N)nc2ccccc21	-0.4	nt
CC1CCc2c(sc3ncn(-n4cccc4)c(=O)c23)C1 (configuration not stated)	3.2	nt
CCSC1=NC2(CCNCC2)N=C1c1ccc(OC)cc1	-2.6	1.3
Cc1noc(C)c1S(=O)(=O)NCC1COc2ccccc2O1 (configuration not stated)	-1.6	nt
Cc1cc(C)n(-c2nncn2/N=C/c2ccc(N3CCCCC3)s2)n1	0.4	nt
Cc1ccsc1C(=O)OCC(=O)Nc1ccc2[nH]c(=O)[nH]c2c1	-3.8	nt
CCOC(=O)/C(C#N)=C1/C=CN(C)C=N1	3.1	nt
O=C(CCn1c(=O)oc2ccccc21)Sc1ccc(C(F)(F)F)cc1	-2.3	nt
Cn1cc(C(=O)N2CCN(Cc3ccccc3)CC2)c2c3ccccc3n(C)c2c1=O	-0.2	-0.19
c1ccc2cc(-c3csnn3)ccc2c1	nt	0.73
COc1ccc(N2CCN(C(=O)CSc3nnc4c5ccccc5n(CC(=O)O)c4n3)CC2)cc1	1.2	-1

Next part.
SMILES	BasE inh	LANA-nucl inh
Oc1ccccc1/C=N/c1nc2ccccc2[nH]1	2.1	0.46
CCOc1ccc(C(=O)N2CCc3cc(OC)c(OC)cc3C2)cc1	0.2	nt
COc1cc2c(cc1OC)C(CC(=O)Nc1ccccc1)C(=O)NN=C2C (configuration not stated)	-4.6	-1.2
N#Cc1cnn(-c2ncnc3c2cnn3-c2ccccc2)c1N	2.9	-0.041
O=S(=O)(c1ccc(Oc2ncnc3sc4c(c23)CCC4)cc1)N1CCOCC1	-1.6	nt
CCOc1ccc(NC(=O)CCn2c(=O)sc3ccccc32)cc1	7.5	-0.026
NC(N)=N/N=C/c1cccs1	1.1	-0.2
COc1ccc(OC)c(S(=O)(=O)N(C)Cc2ccccc2)c1	0.7	-0.076
O=C(O)CN1CCCC1=O	-1.5	-0.22
O=C(CSc1nnc2ccccn12)Nc1ccccc1Cl	-2.0	nt
N#Cc1ccc(C(=O)NCC(c2ccco2)N2CCCC2)cc1 (configuration not stated)	-0.2	nt
O=C(NCc1ccc2c(c1)OCO2)c1cc(=O)c2ccccc2o1	4.4	-0.69
CC[C@]1(O)CC2CN(CCc3c([nH]c4ccccc34)[C@@](C(=O)OC)(c3cc4c(cc3OC)N(C)[C@H]3[C@@](O)(C(N)=O)[C@H](O)[C@]5(CC)C=CCN6CC[C@]43[C@@H]65)C2)C1 (some centres not stated)	nt	-0.84
Nc1c(C(=O)Nc2ccccc2)sc2nc3c(cc12)CCCCC3	0.7	nt
Clc1ccc2nc(-c3ccccc3)c(NCc3ccco3)n2c1	1.2	-0.49
CCOC(=O)c1oc2ccccc2c1NC(=O)COC(=O)CC1Sc2ccccc2NC1=O (configuration not stated)	-0.4	nt
CCOC(=O)N1CCN(C(=O)c2ccc3c(c2)N(CC)CCS3)CC1	1.9	-0.62
CCOC(=O)N1CCN(C(=O)c2cc3c(s2)-c2ccc(Cl)cc2S(=O)(=O)C3)CC1	-0.7	0
CC(C)(C)c1cc(C(C)(C)C)c(O)c(S(N)(=O)=O)c1	1.4	-0.26
CC(=O)NC(=O)/C(C#N)=N\O	1.8	0.49

Retrieved by structure from the entries so far, 6 records:
SMILES	BasE inh	LANA-nucl inh
CSc1ccccc1NC(=O)C1Cc2ccccc2O1 (configuration not stated)	-1.8	nt
COC(=O)CNS(=O)(=O)c1ccsc1C(=O)OC	3.0	nt
CSc1sc(=O)sc1SC	0.3	nt
COc1ccc(OC)c(S(=O)(=O)N(C)Cc2ccccc2)c1	0.7	-0.076
CCOC(=O)/C(C#N)=C1/C=CN(C)C=N1	3.1	nt
O=S(=O)(c1ccc(-c2ccccn2)s1)N1CCC2(CC1)OCCO2	-0.8	nt

Further entries.
SMILES	BasE inh	LANA-nucl inh
Cc1ccc(-c2nc(CS(=O)(=O)CC(=O)NC3CCCCCC3)c(C)o2)cc1	-1.3	-0.29
Cc1oc(-n2c(C)ccc2C)c(C#N)c1C(C)O (configuration not stated)	-0.6	nt
CCCCNC(=O)c1sc(SCC(=O)OCC)nc1N	-4.2	1.9
C=C1CC[C@H](O)C/C1=C/C=C1\CCCC2(C)C1CCC2C(C)CCCC(C)C (some centres not stated)	nt	0.44
C1=C(c2cccs2)CC(c2cccs2)=NN=C1c1cccs1	3.9	nt
Cc1nc(-c2cc(C(=O)O)n(C)c2)cs1	2.7	nt
Nn1c(COc2ccccc2F)nnc1SCCN1C(=O)c2ccccc2C1=O	3.0	nt
CCC(C)N(C(=O)CSc1ccc(NC(C)=O)cc1)C1CCS(=O)(=O)C1 (configuration not stated)	0.4	nt
O=C(OCC1CCCCC1)c1n[nH]c2ccccc12	3.4	nt
Cc1cc(C)n2nc(SCCN3C(=O)c4ccccc4S3(=O)=O)nc2n1	0.3	nt
CCOC(=O)N1CCC(NC(=O)c2ccc(Cl)cc2)CC1	nt	-1.4
O=c1oc(-c2ccccc2)nc2ccc(O)cc12	2.9	0.72
O=C(NN1CCOCC1)c1ccc(=O)n(Cc2ccccc2)n1	-1.5	nt
CC(C)CNC(=O)CSc1ccc(S(=O)(=O)N2CCN(C)CC2)cn1	2.0	nt
c1ccc2c(c1)COC(CN1CCCC1)OC2	-0.3	-0.72
COC(=O)c1c(C)[nH]c(C(=O)C(C)N2CCc3ccccc3C2)c1C (configuration not stated)	-0.3	nt
Nc1ncnc2cccc(F)c12	1.1	-0.54
Cc1nn(C)cc1C(C(=O)NC1CCCCC1)N(CCc1ccccc1)C(=O)c1cnccn1 (configuration not stated)	2.5	-0.38
NS(=O)(=O)c1ccc(NC(=S)N2CCC(Cc3ccccc3)CC2)cc1	-0.4	nt
Cc1ccc(C(=O)Nc2nc3ccc(S(N)(=O)=O)cc3s2)cc1C	1.3	-0.59
Cc1cc(C)n2nc(SCCCC(=O)N3CCOCC3)nc2n1	1.1	nt

Screens (PubChem BioAssay)
